2A firefly: Primary qHTS Assay for Foot and Mouth Disease Virus Antivirals against NCGC Sytravon and CBC Compound Libraries: Firefly Luciferase Signal; HEK cells with a luciferase reporter of 2A StopGo recoding; Potency, µM (highest dose often 57.5 µM), inactives show at the highest dose signal change, negative = less light; 0.23% of 120,000 active; AID 1745856, 2022; active = well fitted falling curve with a large enough effect; inconclusive = small, poorly fitted or top-dose-only effect; inactive = no such curve, though single readings can be large or run the other way; note: nearly all actives have a fitted effect of over 60% in size; overnight with compound
2A Renilla: Primary qHTS Assay for Foot and Mouth Disease Virus Antivirals against NCGC Sytravon and CBC Compound Libraries: Renilla Luciferase Signal | Potency, µM (top dose mostly 57.5 µM), for inactives: at the top dose signal change, negative = less light | 0.32% of 120,000 active | HEK cells with a luciferase reporter of 2A StopGo recoding; active means well fitted falling curve with a large enough effect; inconclusive means small, poorly fitted or top-dose-only effect; inactive means no such curve, though single readings can be large or run the other way; note: nearly all actives have a fitted effect of over 55% in size; overnight with compound
Numbers without * were called inactive; ? = inconclusive; & = joins results of further samples; [ ] = dose if it differs, or a comment. % is set by controls: 0 for no effect and ±100 for the full control effect; potency is the fitted concentration of half-maximal effect. A portion of the library (hit frequency here may not be typical).

SMILES	2A firefly	2A Renilla
NCC(=O)Nc1ccccn1	22%	19%
CCCN(CCC)CCNC(=O)c1cc2c(-c3ccccc3F)nn(C)c2s1	-31%	51%[activator]
Cc1cc(OCC(=O)NCC2(N(C)C)CCCCC2)cc(C)c1Cl	99%[activator]	4%
N#Cc1cccnc1NCc1cccnc1	11%	-6%
CC(C)(C)c1ccc(OCC(O)CNS(=O)(=O)Cc2ccccc2)cc1 (centres undefined)	0%	5%
CCCCCNC(=O)c1cccc(NC(=O)c2ccccc2)c1	0%	171%[activator]
CC(=O)c1ccc(-n2cccc2)cc1	0%	5%
Cc1ccc(C(=O)/C=C/c2sccc2C)cc1	200%[activator]	37%[activator]
CCC(C(=O)NCCc1cc(OC)ccc1OC)n1nc(C)c2c(C)n(-c3ccccc3)nc2c1=O (centres undefined)	-28%&-30%	-5%&-7%
CCn1c(=O)cc(OCC(=O)N(C)c2cc(Cl)ccc2C)c2ccccc21	-16%	8%
NC(=O)c1cc(Cc2ccccc2)sc1NC(=O)c1ccncc1	64%[activator]	-9%
CC(Sc1cc(Cl)ccc1Cl)C(=O)NC(C)(C)C (centres undefined)	9%	9%
O=C(Cn1ncc2c3ccccc3n(Cc3cccc(Cl)c3)c2c1=O)NCCC1=CCCCC1	-3%	-7%
CCOc1ccc(CN(C)CC(O)COCc2ccc(OC)cc2)cc1OC (centres undefined)	-11%	-3%
Cc1[nH]nc2c1C(c1ccc(-c3ccccc3)o1)SCC(=O)N2 (centres undefined)	23%	-8%
O=C(/C=C/c1ccco1)N1CCN(Cc2ccc(C(F)(F)F)cc2)CC1	?	?
CC(C)c1ccc(Nc2cc(C(=O)NCCc3ccccc3)c3ccccc3n2)cc1	0%	-8%
COc1cc(C2CC(=O)Nc3nc(C)[nH]c(=O)c32)ccc1OCc1ccccc1Cl (centres undefined)	13%	-2%
COC(=O)c1sccc1S(=O)(=O)N(CC(=O)Nc1cc(C)ccc1C)c1ccccc1	-21%	38%[activator]
COc1cccc(-n2c(-c3ccco3)nc3c(cnn3-c3ccccc3C)c2=O)c1	-16%	-6%
COc1ccc(CCNC(=O)c2ccc3c(c2)N(Cc2ccc(F)cc2)CCS3)cc1OC	4%	-8%
COC(=O)c1ccccc1NC(=O)N(Cc1ccc(C)cc1)Cc1cccn1-c1nnc(N2CCCC2=O)s1	0%	-7%
CCN1CCN(CCOc2ccc3c(=O)c(-c4ccc(OC)cc4)coc3c2C)CC1	45%[activator]	-6%
O=C(Nc1ccccc1Br)C(Cc1ccccc1)NS(=O)(=O)c1cccc2nsnc12 (centres undefined)	-15%	180%[activator]
CCCc1c(C)nc2ccccc2c1SCCC(=O)O	1%	-8%
O=c1cc(-c2ccccc2)n2c(SCc3ccc(Cl)cc3)nnc2[nH]1	-21%	-7%
CN1C(=O)C2(c3ccccc31)N(c1ccccc1)C(=O)CS2(=O)=O (centres undefined)	2%	-15%
CCN(CC)c1nc2ccccc2nc1C(=O)Nc1ccc(C(C)=O)cc1	19%	22%
Cc1oc2ncn(CC(C)C)c(=O)c2c1C(=O)NCCCN(C)Cc1ccccc1	10%	9%
Cc1ccc(C)c(N2CCN(C(c3ccccc3)c3nnc(-c4ccccc4F)o3)CC2)c1 (centres undefined)	10%	31%[activator]
CC(C(=O)Nc1cccc(Cl)c1)N(C)Cc1c(F)cccc1Cl (centres undefined)	?	?
Cc1cccc(Cn2nc(-c3ccc(C)c(S(=O)(=O)N4CCCC4)c3)ccc2=O)c1	?	?
O=C(NCc1ccc(F)cc1)C1CCN(C(=O)c2ccc(-n3ccc4ccccc43)s2)CC1	20%	2%
O=C(/C=C/c1ccc(Cl)cc1Cl)Nc1ccc(Cl)cc1C(F)(F)F	14%	12%
CSc1ccc(CCNC(=O)Cn2c(C)c3cnn(-c4ccccc4)c(=O)c3c2C)cc1	-13%	4%
CCOc1ccc2c(c1)c(=O)c(S(=O)(=O)c1ccccc1)cn2CC(=O)Nc1cccc(Cl)c1	-2%	34%[activator]
O=C1CN(C(=O)COC(=O)COc2ccc(Cl)cc2Br)c2ccccc2N1	20%	5%
O=C(O)CN1CCCCC1	4%	-2%
Cc1ccc(-c2cccc(N)c2)cc1	0%	8%
COc1ccccc1NC(=O)C1=C(C)Nc2nc(SCc3ccccc3Cl)nn2C1c1ccccn1 (centres undefined)	-14%	-14%
Cc1cc2nc(/C(C#N)=C/c3ccc(F)c(Br)c3)[nH]c2cc1C	143%[activator]	27%
O=C(O)c1ccc(-c2cc(Cl)cc(Cl)c2)s1	0%	-5%
COc1ccc(NC(=O)c2nnn(CC(=O)Nc3cc(C)cc(C)c3)c2N)c(OC)c1	0%	-8%
CN(C)C(CNC(=O)c1cc(=O)c2cc(Cl)ccc2o1)c1cccs1 (centres undefined)	-10%	-4%
Cc1c(Cl)cccc1NC(=O)CSc1ncc(S(=O)(=O)c2ccc(C(C)C)cc2)c(=O)[nH]1	-6%	-12%
O=C(O)/C=C/c1cccc(Cl)c1	9%	3%
N#Cc1cccc(CSc2nnc(N3CCCC3)n2-c2cccc(Cl)c2)c1	-7%	13%
CCc1cnc2c(c1SCC(=O)NCc1ccccc1)c(=O)n(C)c(=O)n2C	3%	6%
Cc1ccc(N2C(=O)c3n[nH]c(C)c3C2c2ccccc2Cl)cc1 (centres undefined)	59%[activator]	22%
COc1cc(OC)cc(C(=O)Nc2cccc(-c3nc4ncccc4o3)c2)c1	106%[activator]	95%[activator]
CCOC(=O)C1=C(C(F)(F)F)NC2(O)c3ccccc3C(=O)C12O (centres undefined)	22%	14%
COc1ccc(NC(=O)CSc2ncc3c(n2)-c2ccccc2N(Cc2ccc(C)cc2)S3(=O)=O)cc1Cl	3%	-8%
Cc1ccc(C)c(NC(=O)C(c2ccccc2)n2cnc3c2c(=O)n(C)c(=O)n3C)c1 (centres undefined)	12%	10%
COc1ccc2nc(COc3ccccc3OC)[nH]c2c1	162%[activator]	6%
CC(=O)N1c2nc(C(C)C)nn2C2(CCCCC2)[C@@H]2CCCC[C@@H]21	9%	224%[activator]
CC(C(=O)O)n1cnc2ccccc21 (centres undefined)	-6%	-9%
CC(OC(=O)CCc1c[nH]c2ccccc12)C(=O)c1ccccc1 (centres undefined)	0%	18%
CNC(=O)NC(=O)Cn1nnc(-c2ccc(F)c(C)c2)n1	6%	1%
Cc1ccc(N2CCN(C(=O)c3cn(C)c4ccc(S(=O)(=O)N5CCC(C)CC5)cc4c3=O)CC2C)cc1 (centres undefined)	-11%	12%
CCCCOc1ccc(S(=O)(=O)N2CCN(c3ccccc3OCC)CC2)cc1	2%	10%
Next section.
SMILES	2A firefly	2A Renilla
COc1cccc(NC(=O)C2CCN(c3nnc(C)c4c(C)n(-c5ccccc5)nc34)CC2)c1	-14%	-4%
CCCCn1nc(C(=O)Nc2ccc(OC)c(OC)c2)c2ccccc2c1=O	60%[activator]	50%[activator]
CC(C)N(C)C1CCN(c2nc(-c3ccncc3)nc3ccccc23)CC1	-14%	-22%
O=Cc1csc(-c2ccc(C(F)(F)F)cc2)n1	0%	5%
Cc1ccc(CNC(=O)Cn2c(SCC(=O)Nc3ccc(F)cc3)nc3ccccc32)cc1	-3%	16%
CCc1ccc(Nc2cc(C(=O)NCCCN(C)c3ccccc3)c3ccccc3n2)cc1	-15%	-14%
CC(=O)Nc1ccc(NC(=O)CCc2c(C)nc3c(c(C)nn3-c3ccc(C)cc3)c2C)cc1	0%	14%
C[n+]1c(NCc2cc(Br)cc(Br)c2[O-])[nH]c2ccccc21	21%	19%
CCOC(=O)c1sc2nc(C)nc(Nc3cccc(C(F)(F)F)c3)c2c1C	2%	-1%
Cc1ccc(-c2nnc(SCc3ccccc3C#N)o2)cc1	159%[activator]	12%
CCC1CCCCN1CCCNC(=O)c1ccc2c(c1)N(Cc1ccccc1)C(=O)c1ccccc1S2(=O)=O (centres undefined)	12%	-6%
CCCCNC1C2CC3CC(C2)CC1C3 (centres undefined)	24%	-3%
Cc1ccc(Nc2c3c(nc4nc(-c5cccs5)nn24)CCCC3)cc1F	0%	1%
COc1ccc(NC(=O)c2c(C)oc3ccc(O)c(CN4CCN(C)CC4)c23)cc1Cl	-19%	-11%
Cc1ccc(C)c(-c2cc(C)ncc2C)c1	1%	5%
COC(=O)c1cc2oc3ccccc3c2n1Cc1nc(-c2cccc(Cl)c2)oc1C	13%	13%
COc1cc(C(=O)NCc2nc3ccccc3n2C)cc(OC)c1OC	7%	0%
COc1ccc(S(=O)(=O)NC(C)(C)CO)cc1-c1nnc2c3ccccc3c(C)nn12	-7%	60%[activator]
O=C(NCc1ccnc(N2CCCC2)c1)c1ccc(Cl)c(S(=O)(=O)N2CCCCCC2)c1	?	?
CC(CNC(=O)CCn1c(=O)c2cccn2c2ccc(F)cc21)c1ccccc1 (centres undefined)	-14%	40%[activator]
CCOC(=O)c1ccc(NC(=O)Cn2c(=O)cc(C(F)(F)F)c3c(C)nn(C)c32)cc1	-20%	-18%
O=C(Cn1c(=O)c(C(F)(F)F)nc2ccccc21)Nc1cccc(Br)c1	29%	3%
CC(=O)Nc1ccc(-c2cc(C(=O)O)c3c(-c4ccccc4)[nH]nc3n2)cc1	17%	-11%
CCOc1ccc(-n2ccn3c(CC(C)CC(=O)O)nnc3c2=O)cc1 (centres undefined)	-13%	-1%

Single records, from the list above:
`Cc1[nH]nc2c1C(c1ccc(-c3ccccc3)o1)SCC(=O)N2` (centres undefined) reads 2A firefly = 23%; 2A Renilla = -8%
`COc1cc(C(=O)NCc2nc3ccccc3n2C)cc(OC)c1OC` reads 2A firefly = 7%; 2A Renilla = 0%

(continued)
SMILES	2A firefly	2A Renilla
CC(=O)c1cccc(NC(=S)NNC(=O)c2ccc(-c3ccccc3)cc2)c1	0%	11%
CC(OC(=O)c1ccc2c(c1)NC(=O)CS2)C(=O)Nc1cccc(C#N)c1 (centres undefined)	7%	0%
Cc1ccc(C(=O)N/N=C/C(C)C)cc1C	87%[activator]	9%
CCCC(=O)N/C(N)=N/c1nc(C)c2ccccc2n1	112%[activator]	8%
COc1ccc2cc(S(=O)(=O)N3CCN(C(c4ccccc4)c4ccccc4)CC3)ccc2c1	4%	-3%
O=S(=O)(c1cccc2nsnc12)N1CCCC1c1ccc(Cl)cc1 (centres undefined)	0%	18%
O=C(COC(=O)c1n[nH]c(=O)c2ccccc12)c1ccccc1	4%	-6%
Cc1nn2c(=O)cc(CN(C)c3ccccc3)nc2s1	2%	7%
C=CCOc1ccc(C2c3c(oc4ccc(C)cc4c3=O)C(=O)N2CCCN2CCOCC2)cc1 (centres undefined)	79%[activator]	19%
Cc1cccc(-c2nc(SCc3ccc(Br)cc3)n3[nH]c(=O)cc3n2)c1	-2%	-3%
Cc1nc(CN2CCNCC2)cs1	19%	6%
Cc1ccccc1OCc1nc2ccccc2n1Cc1ccccc1Cl	4%	5%
Clc1ccc(-c2noc(-c3ccccc3Br)n2)cc1	195%[activator]	5%
CC(=O)NCCNc1nc(-c2ccsc2)nc2ccccc12	0%	23%
O=C(O)/C(=C\C=C\c1ccco1)NC(=O)c1ccccc1	20%	-3%
O=C(Nc1ccc(Cl)c(C(F)(F)F)c1)C1=C(c2ccccc2)S(=O)(=O)CCO1	-17%	-23%
Cc1ccc(N2CC(NC(=O)c3ccc(S(=O)(=O)N4CCOCC4)cc3)CC2=O)cc1C (centres undefined)	?	5%
CCC(=O)N1c2ccc(S(=O)(=O)NCc3ccc(F)cc3)cc2CC1C (centres undefined)	21%	200%[activator]
O=Cc1cccc(OCc2ccc(Cl)cc2Cl)c1	-30%	3%

Among those listed so far, these contain an aryl methoxy group.
SMILES	2A firefly	2A Renilla
CCC(C(=O)NCCc1cc(OC)ccc1OC)n1nc(C)c2c(C)n(-c3ccccc3)nc2c1=O (centres undefined)	-28%&-30%	-5%&-7%
CCOc1ccc(CN(C)CC(O)COCc2ccc(OC)cc2)cc1OC (centres undefined)	-11%	-3%
COc1cc(C2CC(=O)Nc3nc(C)[nH]c(=O)c32)ccc1OCc1ccccc1Cl (centres undefined)	13%	-2%
COc1cccc(-n2c(-c3ccco3)nc3c(cnn3-c3ccccc3C)c2=O)c1	-16%	-6%
COc1ccc(CCNC(=O)c2ccc3c(c2)N(Cc2ccc(F)cc2)CCS3)cc1OC	4%	-8%
CCN1CCN(CCOc2ccc3c(=O)c(-c4ccc(OC)cc4)coc3c2C)CC1	45%[activator]	-6%
COc1ccccc1NC(=O)C1=C(C)Nc2nc(SCc3ccccc3Cl)nn2C1c1ccccn1 (centres undefined)	-14%	-14%
COc1ccc(NC(=O)c2nnn(CC(=O)Nc3cc(C)cc(C)c3)c2N)c(OC)c1	0%	-8%
COc1cc(OC)cc(C(=O)Nc2cccc(-c3nc4ncccc4o3)c2)c1	106%[activator]	95%[activator]
COc1ccc(NC(=O)CSc2ncc3c(n2)-c2ccccc2N(Cc2ccc(C)cc2)S3(=O)=O)cc1Cl	3%	-8%
COc1ccc2nc(COc3ccccc3OC)[nH]c2c1	162%[activator]	6%
COc1cccc(NC(=O)C2CCN(c3nnc(C)c4c(C)n(-c5ccccc5)nc34)CC2)c1	-14%	-4%
CCCCn1nc(C(=O)Nc2ccc(OC)c(OC)c2)c2ccccc2c1=O	60%[activator]	50%[activator]
COc1ccc(NC(=O)c2c(C)oc3ccc(O)c(CN4CCN(C)CC4)c23)cc1Cl	-19%	-11%
COc1cc(C(=O)NCc2nc3ccccc3n2C)cc(OC)c1OC	7%	0%
COc1ccc(S(=O)(=O)NC(C)(C)CO)cc1-c1nnc2c3ccccc3c(C)nn12	-7%	60%[activator]
COc1ccc2cc(S(=O)(=O)N3CCN(C(c4ccccc4)c4ccccc4)CC3)ccc2c1	4%	-3%
